Lassa entry inh: qHTS for Inhibitors of binding or entry into cells for Lassa Virus | hit rate 1.2% among 300,000 | Lassa virus pseudotype entry inhibition, cell reporter; control for the full effect not named in the record | Potency, µM (doses to about 37.9 µM), for the others: at the highest dose activity change, negative = inhibition, usual class: inhibitors | AID 540256, 2011; active means well fitted inhibition curve with a large enough effect; inconclusive means small, poorly fitted or top-dose-only effect, or effect the other way; inactive means flat fitted curve, though single readings scatter; tested in HEK293 cells; note: % is set by controls: 0 for no effect and ±100 for the full control effect; nearly all actives have a fitted effect of over 50% in size; luciferase read-out
SARS PLP yeast: qHTS of Yeast-based Assay for SARS-CoV PLP. S. cerevisiae expressing SARS-CoV PLpro, growth rescue; control for the full effect not named in the record. Potency, µM (top dose mostly 32.9 µM), without a hit: top-dose activity, positive = growth rescue. hit rate 0.19% among 330,000. AID 485353, 2010; note: 0% is about no effect; nearly all actives have a fitted effect of over 55% in size; growth read by luminescence after 48 h
RE007 growth inh: qHTS Assay for Inhibitors of the HIV-1 protein Vpr; S. pombe RE007 Vpr strain, BacTiter-Glo ATP luminescence, 24 h; control for the full effect not named in the record; Potency, µM (doses to about 92.2 µM), inactives show at the top dose activity change, negative = less growth; hit rate 0.21% among 360,000; active = well fitted falling curve with a large enough effect; inconclusive = small, poorly fitted or top-dose-only effect; inactive = no such curve, though single readings can be large or run the other way;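 note: % is set by controls: 0 for no effect and ±100 for the full control effect; nearly all actives have a fitted effect of over 50% in size; the assay follows cell death caused by Vpr and the record does not say whether a fall means rescue or toxicity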
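Fission yeast strain RE007, carrying one chromosomally integrated HIV-1 vpr copy, was seeded at OD 0.01 in PMG+AL medium with 23 nL pinned compound. After 24 h at 30 °C and 99% humidity, viability was read by BacTiter-Glo luminescence.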
Cruzain noTriton: qHTS Assay for Promiscuous and Specific Inhibitors of Cruzain (without detergent); AID 1476, 2009; purified cruzain, Z-FR-AMC fluorescence, no detergent; Potency, µM, for inactives: max response, negative = inhibition, usual class: inhibitors; hit rate 2.3% among 200,000; active = well fitted curve in the direction sought with a large enough effect; inconclusive = small, poorly fitted or top-dose-only effect, or another doubt; inactive = no such curve, though single readings can be large; an effect the other way counts as inactive or inconclusive;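 note: plate controls were enzyme without inhibitor for no effect and buffer without enzyme for full effect; nearly all actives have a fitted effect of over 40% in size; top concentration of the series not given in the record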
Target sequence (P25779 123-467 limits assumed): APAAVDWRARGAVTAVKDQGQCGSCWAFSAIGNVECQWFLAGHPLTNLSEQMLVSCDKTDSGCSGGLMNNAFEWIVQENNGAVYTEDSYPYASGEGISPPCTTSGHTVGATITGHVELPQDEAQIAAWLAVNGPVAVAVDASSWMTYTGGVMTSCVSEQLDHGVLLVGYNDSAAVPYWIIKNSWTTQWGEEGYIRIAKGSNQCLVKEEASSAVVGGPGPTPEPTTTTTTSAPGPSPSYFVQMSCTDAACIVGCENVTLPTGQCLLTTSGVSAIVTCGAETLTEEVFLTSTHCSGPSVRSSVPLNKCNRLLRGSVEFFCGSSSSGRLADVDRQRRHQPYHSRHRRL
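Detergent-free condition (0.00005% Triton X-100) in acetate buffer pH 5.5 with DTT. 1.5 nM enzyme and compound were pre-mixed 15 min, then 2 uM Z-FR-AMC substrate added; reaction progress from fluorescence change between first and third reads (60 s).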
NS1 inh: qHTS Assay for Inhibitors of Influenza NS1 Protein Function; S. cerevisiae slowed by influenza A NS1, growth recovery by OD600; Potency, µM (highest dose often 46.1 µM), inactives show top-dose activity, positive = more growth; hit rate 0.4% among 270,000; AID 2326, 2010; note: actives are rising curves; nearly all actives have a fitted effect of over 50% in size
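Read-out: OD600 growth recovery of NS1-expressing budding yeast. Cells grown overnight at 30C in -URA glucose medium, washed, resuspended and diluted 1:100 in 2% galactose assay medium, pH 6.0. Same strain lacking NS1 served as positive control.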
Cruzain inh Det: qHTS Assay for Promiscuous and Specific Inhibitors of Cruzain (with detergent) | hit rate 0.43% among 200,000 | purified cruzain, Z-FR-AMC fluorescence, 0.01% Triton | Cruzipain (Trypanosoma cruzi), P25779 | Potency, µM, for inactives: max response, negative = inhibition, most hits filed as inhibitors | AID 1478, 2009; active = well fitted curve in the direction sought with a large enough effect; inconclusive = small, poorly fitted or top-dose-only effect, or another doubt; inactive = no such curve, though single readings can be large; an effect the other way counts as inactive or inconclusive;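 note: plate controls were neutral wells for no effect and buffer without enzyme for full effect; nearly all actives have a fitted effect of over 40% in size; top concentration of the series not given in the record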
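Enzyme 1.5 nM, Z-FR-AMC 2 uM, NaOAc 100 mM pH 5.5, DTT 5 mM, Triton X-100 0.01%; 15 min RT compound preincubation; kinetic ex360/em450, 60 s delta.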
MARV entry inh: qHTS for inhibitors of binding or entry into cells for Marburg Virus | AID 540276, 2011 | hit rate 1.8% among 300,000 | Potency, µM (series often up to 37.8 µM), for inactives: at the highest dose activity change, negative = inhibition, most hits filed as inhibitors | Marburg virus pseudotyped entry inhibition, cell reporter; control for the full effect not named in the record; about a third of the inactives were read at about 46 µM; active = well fitted inhibition curve with a large enough effect; inconclusive = small, poorly fitted or top-dose-only effect, or effect the other way; inactive = flat fitted curve, though single readings scatter; tested in HEK293 cells; about a fifth of its hits are not listed in these tables; note: % is set by controls: 0 for no effect and ±100 for the full control effect; luciferase read-out
StopGo reporter: High Throughput Screening for Foot and Mouth Disease Virus Antivirals; human cells with a luciferase reporter of 2A StopGo recoding; control for the full effect not named in the record; Potency, µM (doses to about 57.9 µM), without a hit: at the highest dose signal change, negative = less light; hit rate 1.2% among 410,000; AID 1159524, 2015; active = well fitted falling curve with a large enough effect; inconclusive = small, poorly fitted or top-dose-only effect; inactive = no such curve, though single readings can be large or run the other way; tested in HEK293T cells; note: % is set by controls: 0 for no effect and ±100 for the full control effect; nearly all actives have a fitted effect of over 45% in size; luciferase light after 4 h
* = called active by the depositor; & = joins results of further samples; [ ] = dose if it differs, or a comment. Unless noted, calls come from the whole dose curve; as a rule, active means well fitted rising curve with a large enough effect; inconclusive means small, poorly fitted or top-dose-only effect; inactive means no such curve, though single readings can be large or run the other way. Potency is the fitted concentration of half-maximal effect.

Results for CC(C)C(NS(=O)(=O)c1ccc2c(c1)Cc1cc(S(=O)(=O)NC(C(=O)O)C(C)C)ccc1-2)C(=O)O (stereo not drawn) ?
Lassa entry inh: 7.2%; SARS PLP yeast: -0.6%; RE007 growth inh: -11.4%; MARV entry inh: 1.2%; StopGo reporter: -6.3%

What do the screens show for `CCOC(=O)Cn1cc(C#N)c(=O)[nH]c1=O`?
Lassa entry inh: -7.7%[46.1 µM]; SARS PLP yeast: 0.7%; RE007 growth inh: -0.1%; NS1 inh: -1.9%; MARV entry inh: 7.6%[46.1 µM]; StopGo reporter: 4.8%

What do the screens show for `CC(Oc1cc2oc(=O)c3c(c2cc1Cl)CCCC3)C(=O)NCc1ccncc1` (stereo not drawn)?
SARS PLP yeast: -3.6%; RE007 growth inh: -9.6%; NS1 inh: -113.0%; StopGo reporter: -7.2%

How did O=C(NCc1ccccc1)c1c2c(nc3ccccc13)C(=O)N(C1CCCCC1)C2 do in these assays?
Lassa entry inh: inconclusive; Cruzain noTriton: 5.2%; Cruzain inh Det: -2.0%; StopGo reporter: -24.3%

Results for COCCn1c(SCC(=O)Nc2ccccc2F)nc2c([nH]c3ccccc32)c1=O ?
Lassa entry inh: 11.0%; SARS PLP yeast: 1.5%; RE007 growth inh: 5.7%; NS1 inh: -0.8%; MARV entry inh: -13.7%; StopGo reporter: -6.0%

How did COc1ccc(OC)c(S(=O)(=O)N2CCC3(CC2)CC(=O)c2ccccc2O3)c1 do in these assays?
Lassa entry inh: inconclusive; SARS PLP yeast: -2.7%; RE007 growth inh: -5.2%; MARV entry inh: -10.5%; StopGo reporter: -22.9%

What do the screens show for `CS(=O)(=O)N1CCC(n2c(C(F)(F)F)nc3cccnc32)CC1`?
Lassa entry inh: 10.3%[46.1 µM]; Cruzain noTriton: -7.3%; Cruzain inh Det: 1.0%; StopGo reporter: -11.3%

What do the screens show for `O=C(N/N=C/c1c(F)cccc1Cl)c1ccc(Cn2cc(Br)cn2)o1`?
Lassa entry inh: 8.1%; SARS PLP yeast: 0.4%; RE007 growth inh: 10.7%; Cruzain noTriton: -2.2%; NS1 inh: -1.8%; Cruzain inh Det: -8.1%; MARV entry inh: 1.8%; StopGo reporter: 10.5%

How did O=C(Nn1c(Cc2cccs2)nc2ccccc2c1=O)c1ccc(F)c(F)c1 do in these assays?
Lassa entry inh: -1.6%; SARS PLP yeast: 22.6%; RE007 growth inh: -12.1%; Cruzain noTriton: 1.1%; NS1 inh: -32.0%; Cruzain inh Det: -4.3%; MARV entry inh: 1.1%; StopGo reporter: 3.2%

What do the screens show for `CC1CCCCC1NC(=O)CCCN1C(=O)c2ccccc2C1=O` (stereo not drawn)?
Lassa entry inh: 6.7%; SARS PLP yeast: -1.4%; RE007 growth inh: 3.5%; MARV entry inh: inconclusive; StopGo reporter: 10.7%

Results for Cc1ccccc1/C=N/NC(=O)c1sccc1C ?
Lassa entry inh: -14.4%; SARS PLP yeast: 8.8%; RE007 growth inh: -19.9%; Cruzain noTriton: inconclusive; NS1 inh: -2.8%; Cruzain inh Det: -3.1%; MARV entry inh: -23.5%; StopGo reporter: -15.1%

Results for Cc1ccc(NC(=O)c2c(C)oc3ncnc(N4CCCCC4)c23)c(C)c1 ?
Lassa entry inh: 2.9%[46.1 µM]; Cruzain noTriton: -11.8%; Cruzain inh Det: -2.2%; StopGo reporter: -22.0%

What do the screens show for `Cc1ccc(C(C(=O)NC2CCCCC2)N(CC2CCCO2)C(=O)CNC(=O)c2ccco2)cc1` (stereo not drawn)?
Lassa entry inh: 9.7%; SARS PLP yeast: -0.6%; RE007 growth inh: -3.1%; Cruzain noTriton: 26.6%; NS1 inh: -14.7%; Cruzain inh Det: 1.3%; MARV entry inh: -0.3%&-13.1%; StopGo reporter: 14.9%

What do the screens show for `CCn1c(=O)c(C(=O)NCCc2ccc(OC)c(OC)c2)c(O)c2ccccc21`?
SARS PLP yeast: 14.2%; RE007 growth inh: -6.3%; NS1 inh: -42.9%; StopGo reporter: -14.3%

What do the screens show for `CC(C)N1CCC2(CC1)Oc1ccc(Br)cc1C1CC(c3cccnc3)=NN12` (stereo not drawn)?
SARS PLP yeast: 1.5%; RE007 growth inh: 12.4%; NS1 inh: -60.5%; StopGo reporter: 22.6%

What do the screens show for `O=C(O)CNC(=O)C1COc2ccccc2O1` (stereo not drawn)?
Lassa entry inh: 2.9%; SARS PLP yeast: -5.5%; RE007 growth inh: -17.3%; Cruzain noTriton: 0.6%; NS1 inh: -1.5%; Cruzain inh Det: 1.6%; MARV entry inh: 2.1%; StopGo reporter: -22.0%

Results for O=C(Nc1nnc(CC(=O)N2CCOCC2)s1)C1COc2ccccc2O1 (stereo not drawn) ?
Lassa entry inh: inconclusive; SARS PLP yeast: 1.4%; RE007 growth inh: -19.4%; Cruzain noTriton: -0.3%; NS1 inh: -0.7%; Cruzain inh Det: 3.2%; MARV entry inh: 2.0%; StopGo reporter: 24.3%

Results for O=C(Oc1ccccc1)c1cccc2cccnc12 ?
Lassa entry inh: -1.5%; SARS PLP yeast: -35.5%; RE007 growth inh: 35.5µM*; Cruzain noTriton: -4.5%; NS1 inh: -30.4%; Cruzain inh Det: 1.2%; MARV entry inh: 4.9%

Results for CCOc1cc(CN2CCN(C(=O)c3cccc4ccccc34)CC2)ccc1OC ?
SARS PLP yeast: 4.5%; RE007 growth inh: 4.3%; NS1 inh: -17.0%; StopGo reporter: 0.0%

What do the screens show for `NC(=O)COC(=O)Cc1coc2cc3c(cc12)CCC3`?
Lassa entry inh: -19.1%; SARS PLP yeast: -4.7%; RE007 growth inh: -7.7%; MARV entry inh: 13.5%[46.1 µM]; StopGo reporter: 7.0%

What do the screens show for `CS(=O)(=O)N1CCN(c2ccccc2NC(=O)c2cccc3ccccc23)CC1`?
Lassa entry inh: 0.5%; SARS PLP yeast: -1.7%; RE007 growth inh: 4.8%; Cruzain noTriton: 6.3%; NS1 inh: 2.0%; Cruzain inh Det: -2.4%; MARV entry inh: -1.4%; StopGo reporter: -9.2%

How did Cc1cccc(NC(=O)c2ccc(-c3ccccc3)s2)c1 do in these assays?
Lassa entry inh: inconclusive; Cruzain noTriton: -22.3%; Cruzain inh Det: -10.1%; MARV entry inh: inconclusive; StopGo reporter: 44.0%[activator]

Results for CC1CCCCC1NC(=O)COn1nnc2ccc(Cl)cc21 (stereo not drawn) ?
Lassa entry inh: 0.4%; SARS PLP yeast: -6.2%; RE007 growth inh: -0.4%; Cruzain noTriton: 0.7%; NS1 inh: -7.9%; Cruzain inh Det: 1.1%; MARV entry inh: -6.0%; StopGo reporter: -9.6%

What do the screens show for `Cc1nn(-c2ccccc2)c2c1c(C)c(CCC(=O)NCC1CCCO1)c(=O)n2C` (stereo not drawn)?
SARS PLP yeast: -0.6%; RE007 growth inh: 14.8%; NS1 inh: -4.6%; StopGo reporter: inconclusive

Results for Cc1cccc(C)c1OCC(=O)Nc1cccc(C(=O)O)c1 ?
SARS PLP yeast: 0.5%; RE007 growth inh: 3.2%; NS1 inh: 4.9%; MARV entry inh: inconclusive; StopGo reporter: -25.8%

Results for COC(=O)Nc1sc2c(c1C(=O)NC1CC1)CCCCCC2 ?
Lassa entry inh: 1.2%; SARS PLP yeast: -1.7%; RE007 growth inh: -5.0%; Cruzain noTriton: -5.6%; NS1 inh: -2.7%; Cruzain inh Det: -3.8%; MARV entry inh: -0.2%; StopGo reporter: 3.7%

What do the screens show for `c1ccc(-n2nnnc2NCCc2c[nH]c3ccccc23)cc1`?
Lassa entry inh: -17.7%; SARS PLP yeast: 3.9%; RE007 growth inh: 6.0%; Cruzain noTriton: -4.2%; NS1 inh: -2.3%; Cruzain inh Det: 0.0%; MARV entry inh: -4.9%; StopGo reporter: 54.1%[activator]

How did COC(=O)c1ccc(NC(=O)c2cccc(C)c2)cc1 do in these assays?
Lassa entry inh: -2.2%; SARS PLP yeast: -10.0%; RE007 growth inh: -18.8%; NS1 inh: -21.4%; MARV entry inh: 16.0%; StopGo reporter: 41.0%[activator]

What do the screens show for `COc1ccc(Cl)cc1C(=O)Nc1ccc(Br)c(C)n1`?
Lassa entry inh: 5.0%; SARS PLP yeast: 1.3%; RE007 growth inh: -1.7%; NS1 inh: -1.2%; MARV entry inh: -6.4%[46.1 µM]; StopGo reporter: -4.6%

How did CCOc1ccc(S(=O)(=O)N2CCOCC2)cc1NC(=O)C1CSC2(C)CCC(=O)N12 (stereo not drawn) do in these assays?
Lassa entry inh: 1.1%[46.1 µM]; SARS PLP yeast: 4.4%; RE007 growth inh: 1.8%; MARV entry inh: inconclusive; StopGo reporter: 7.3%

How did Fc1ccccc1Cn1nnc(-c2ccc3c(c2)OCO3)n1 do in these assays?
Lassa entry inh: inconclusive; SARS PLP yeast: -8.2%; RE007 growth inh: -15.0%; Cruzain noTriton: 3.5%; NS1 inh: -83.7%; Cruzain inh Det: -7.5%; MARV entry inh: inconclusive; StopGo reporter: 4.7%

Results for O=C(CSc1nnc(CNC(=O)c2ccccc2F)o1)Nc1cccc(C(F)(F)F)c1 ?
Lassa entry inh: -3.6%[46.1 µM]; SARS PLP yeast: 3.6%; RE007 growth inh: -4.6%; NS1 inh: -7.2%; MARV entry inh: 19.8%[46.1 µM]; StopGo reporter: -2.8%

How did Cc1c(C)c2ccc(OC(C)C(=O)N[C@@H](Cc3c[nH]c4ccccc34)C(=O)O)c(C)c2oc1=O (stereo partly drawn) do in these assays?
SARS PLP yeast: -9.9%; RE007 growth inh: 5.5%; NS1 inh: 10µM*; StopGo reporter: -23.2%

Screening data as filed in PubChem.
